Choline anaer gr = growth inhibitors of anaerobic choline-fed gram-negatives, minimal medium, absorbance; 55,000 tested, 0.2% active; Gram-negative bacterium anaerobic choline minimal medium; stronger effect = lower value; many inactives read as strong as hits in the columns shown; calls only;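 active means growth z-score on choline under -2 at 7 or 20 h with little or no fall on glycerol, limits in tiers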;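 further: stock transfer was 300 nL into about 50 µL; the organism is E. coli; final concentration not given here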
Choline anaer gr early = second read-out of Choline anaer gr, no call of its own (marks repeat the call); z-score; measured here: choline growth z-score, timepoint 1;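 score of optical density at 7 h as mean of two plates; lower means less growth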
* hit, by the source's call; i = inactive; & = joins results of further samples. An excerpt; rates above refer to the full screens.

Below each SMILES – Choline anaer gr early | Choline anaer gr
> O=c1c(S(=O)(=O)c2ccc(F)cc2)c[nH]c2cc(Cl)c(F)cc12
    -1.8 | i
> CC(C)NC(=O)CN1CCn2nc(-c3ccccc3)cc2C1=O
    0.93 | i
> CCn1cnc2cc(-c3noc(-c4cnccn4)n3)ccc21
    -1 | i
> CCN(Cc1ccc(C(C)C)cc1)Cc1cc(=O)n2cc(C)sc2n1
    -0.71 | i
> COc1ccc(N2C(=O)c3cc4sccc4n3CC2(C)C(=O)NC2CCCCC2)cc1OC (configuration not stated)
    -0.05 | i
> COc1ccc(N2CCN(Cc3cccn3-c3nnc(N4CCN(c5ccccc5)CC4)s3)CC2)cc1
    -0.05 | i
> Cc1ccc(-n2nc(N3CCCN(C(=O)NC4CCCC4)CC3)ccc2=O)cc1C
    0.87 | i
> CCC(C)NC(=O)c1cc2cc3ccc(C)cc3nc2s1 (configuration not stated)
    0.83 | i
> Cc1cccc(CNC(=O)C2CCCN(S(=O)(=O)N3CCC(C)CC3)C2)c1 (configuration not stated)
    -1 | i
> COc1cccc(NC(=O)c2ccc(Cn3nc(C)c(S(=O)(=O)N(C)C)c3C)cc2)c1
    1 | i
> Cc1cccc(OCc2nc(C)c(C(=O)Nc3nnc(C(C)C)s3)s2)c1
    0.85 | i
> O=C(O)c1cnc(N2CCCC(CN3CCCC3)C2)c(NS(=O)(=O)c2cc(F)ccc2F)c1 (configuration not stated)
    -0.1 | i
> CCOC(=O)c1cnn(-c2ccc(C(=O)N3CCN(c4cc(Cl)ccc4C)CC3)cc2)c1N
    0.29 | i
> CC(C)(C)C(=O)N1CCC(n2nc(-c3ccccc3)oc2=O)CC1
    0.41 | i
> CCC(C)Nc1cc(C)nc2c(-c3ccc(F)cc3)cnn12 (configuration not stated)
    0.9 | i
> Cc1c(C(=O)Nc2ccc(-n3cnnn3)cc2)nnn1-c1ccc2noc(-c3ccc(Cl)cc3)c2c1
    -1.1 | i
> Cn1c(=O)n(C)c2cc(NS(=O)(=O)c3ccc(N4CCCC4=O)cc3)ccc21
    1.2 | i
> O=c1c2ccccc2c(-c2nc(-c3ccc4c(c3)OCO4)no2)nn1-c1ccccc1
    -0.03 | i
> O=C(NCC1CCCO1)N1CCC(N2CCN(Cc3ccc(F)cc3)C(=O)C2=O)CC1 (configuration not stated)
    -1.1 | i
> Cc1nnc(-c2csc(S(=O)(=O)NC3CC3)c2)o1
    -0.08 | i

The list goes on:
Below each SMILES – Choline anaer gr early | Choline anaer gr
> CCN1C(=O)COc2ccc(-c3nc(NC(=O)c4cccnc4)sc3C)cc21
    -1.1 | i
> CCCCC[C@H](O)/C=C/[C@H]1[C@H](O)CC(=O)[C@@H]1CCCCCCC(=O)NCCO
    -0.65 | i
> COc1ccc(NS(=O)(=O)c2cc(-c3noc(C)n3)cs2)c(OC)c1
    -0.84 | i
> O=S(=O)(c1ccccc1)c1nnn2c1nc(NCc1ccc3c(c1)OCO3)c1sccc12
    0.54 | i
> Cc1ccc(-c2noc(-c3cc(-c4cc(C)ccc4C)n[nH]3)n2)cc1
    0.92 | i
> Cc1cc(C)cc(NC(=O)N2CCN(Cc3nc4cc(C(=O)N(C)C)ccc4n3C)CC2)c1
    0.02 | i
> CC(C)Cn1c(=O)c2nscc2n(CC(=O)NC(C)C)c1=O
    1.1 | i
> CCC1CCCCN1S(=O)(=O)c1cc(-c2ccc(=O)n(C)n2)sc1C (configuration not stated)
    0.59 | i
> Cc1ccccc1OCC(=O)Nc1cccc(OCc2cc(=O)n3ccccc3n2)c1
    0.91 | i
> CCOC(=O)c1cc2ccsc2n1CC(=O)Nc1ccc(F)c(Cl)c1
    0.67 | i
> CC(C)c1csc(-c2csc(S(=O)(=O)NCc3ccc4c(c3)OCO4)c2)n1
    1.3 | i
> O=C(NCc1ccccn1)c1cccc(CN2C(=O)C3CCCN3C(=O)c3ccccc32)c1 (configuration not stated)
    -1 | i
> Cc1cccc(NC(=O)Cn2c(=O)c(C)nc3ccccc32)c1
    0.24 | i
> Cc1cccc(OCc2nc(C)c(C(=O)NC3CCCC3)s2)c1
    0.84 | i
> CCOC(=O)c1cc(S(=O)(=O)N(C)CC(=O)NC(C)CC)cn1C (configuration not stated)
    -1.1 | i
> C[C@]12C[C@H](O)[C@H]3[C@@H](CCC4=CC(=O)CC[C@@]43C)[C@@H]1CC[C@@H]2C(=O)CO
    -0.76&0.22&-0.11 | i
> CC(C)CNC(=O)C1CCN(c2ccc(-c3ccccc3)nn2)CC1
    1.4 | i
> Cc1nn(C(C)C(=O)Nc2ccccc2Br)c(=O)c2nn(-c3ccccc3)c(C)c12 (configuration not stated)
    -1.7 | i
> COc1ccc(C2C3=C(CCCC3=O)Nc3onc(C)c32)c(OC)c1 (configuration not stated)
    -0.08 | i
> Cc1nc(-c2cc(S(=O)(=O)N3CCN(c4ccccc4)CC3)c(C)s2)cs1
    1.6 | i

Continuation:
Below each SMILES – Choline anaer gr early | Choline anaer gr
> COc1ccc2[nH]cc(CCNC(=O)c3c(-c4ccccn4)noc3C)c2c1
    2.1 | i
> COc1ccc(Oc2ccnc(-c3cccc(C(=O)NC4CC4)c3)n2)cc1
    1.4 | i
> CN1C(=O)Cc2cc(S(=O)(=O)CCC(=O)N3CCN(c4ccccc4F)CC3)ccc21
    0.52 | i
> CCN(CC)CCCNS(=O)(=O)c1ccc2c(c1)N(C(C)=O)CCCS2
    -0.87 | i
> O=P(O)(O)C(O)(Cn1ccnc1)P(=O)(O)O
    -0.35&0.87 | i
> O=C(Nc1ccc(F)cc1)c1nnc(C2CCCN(C(=O)Nc3ccc(Cl)cc3)C2)s1 (configuration not stated)
    -0.13 | i
> CCOc1ccc(NC(=O)Cc2csc(COc3cccc(C)c3)n2)cc1
    1.3 | i
> O=C(NCCC1=CCCCC1)C1CCN(c2cnc(N3CCOCC3)nc2)CC1
    0.28 | i
> CCCCC(=O)Nc1cnc(N2CCN(c3cccc(C)c3)C(C)C2)c(C(=O)O)c1 (configuration not stated)
    -0.64 | i
> Cc1sc(C)c(S(=O)(=O)N2CCOCC2)c1-c1ccno1
    -0.18 | i
> CC1CCN(c2nc3c(c(=O)n(C)c(=O)n3C)n2Cc2ccc(Br)cc2)CC1
    -0.07 | i
> CCN(CC)C(=O)Cn1cnc2onc(-c3ccc(Cl)cc3)c2c1=O
    0.63 | i
> O=C(Nc1ccc2c(c1)OCCO2)C1CCN(c2cc(C(=O)N3CCCC3)ccn2)CC1
    0.21 | i
> COCCNC(=O)c1ccc2c(=O)n(Cc3ccccc3)c(SCC(=O)c3ccc(F)cc3)nc2c1
    1.3 | i
> O=C(NCc1ccccc1Cl)c1ccc2c(c1)N(Cc1ccccc1)CCS2
    1.6 | i
> CCCCC[C@H](O)/C=C/[C@@H]1[C@@H](CCCCCCC(=O)O)[C@@H](O)C[C@H]1O
    1.1&0.41 | i
> C=Cc1ccc(CN(c2nc3nc(C)c(Cl)c(C)n3n2)S(=O)(=O)c2ccc(Cl)cc2)cc1
    -0.55 | i
> O=C(c1cc(F)cc(F)c1)N1CCC(c2noc(-c3ccc(S(=O)(=O)N4CCCC4)cc3)n2)CC1
    -1.3 | i
> COCCNS(=O)(=O)c1ccc(OC)c(-c2noc(C(C)(C)C)n2)c1
    -1.4 | i
> CC(C)CN1CCN(S(=O)(=O)c2ccc(-c3nnc(C4CC4)o3)o2)CC1
    0.69 | i

Continued.
Below each SMILES – Choline anaer gr early | Choline anaer gr
> Cc1cc(C)c2c(c1)[C@H]1OCCC[C@H]1C(c1cccc(O)c1)N2 (some centres not stated)
    -0.87 | i
> CCOC(=O)c1nc(NC(C)(C)C)c2c(-c3ccc(F)cc3)noc2n1
    1.1 | i
> CCn1c(/C=C/c2c(C)n(CC)c3ccccc23)nc2ccccc2c1=O
    0.77 | i
> COc1ccc2[nH]cc(CCNC(=O)CN3C(=O)c4cccnc4Sc4ccccc43)c2c1
    0.15 | i
> Cc1c(C(=O)NCCc2ccccc2)oc2ccc(S(=O)(=O)N3CCC(C)CC3)cc12
    0.28 | i
> CCOC(=O)N1CCC2(CC1)N=C(c1ccccc1)CC(c1ccccc1O)N2 (configuration not stated)
    -1.1 | i
> CC1(C)Cc2c(sc3ncn4nc(-c5ccccc5Cl)nc4c23)C(C)(C)N1
    -0.14 | i
> CC(C)C(=O)Nc1cc(-c2cccc(Br)c2)nn1-c1ccccc1
    0.15 | i
> O=C(Nc1ccccc1)N1CCN(Cc2cc(=O)n3nc(-c4cccc(F)c4)sc3n2)CC1
    0.61 | i
> COCCNC(=O)c1nn(C)c2c1CSc1ccc(Cl)cc1-2
    0.4 | i
> CCC1CCCCN1C(=O)c1sc2nc(-c3ccccc3)cn2c1C (configuration not stated)
    0.9 | i
> Cc1ccc(NC(=O)CSc2nnc(-c3cccnc3)o2)cc1
    -1.6 | i
> Cc1ccc(Cc2nc(CCNS(=O)(=O)c3c(C)cc(C)cc3C)n[nH]2)cc1
    -0.83 | i
> CCOC(=O)c1ccc2c(c1)N(Cc1nc(-c3ccccc3)oc1C)C(=O)c1ccccc1S2(=O)=O
    0.17 | i
> Cc1cn[nH]c1
    0.53&-0.41 | i
> Clc1ccc(-c2cc3c(N4CCN(Cc5ccccc5)CC4)nccn3n2)cc1
    -0.11 | i
> CCOC(=O)c1ccccc1NC(=O)c1cc(C)n(-c2ccc(N3CCCC3)nc2)c1C
    -1.4 | i
> Cc1cccc(CCNC(=O)C2CCN(S(=O)(=O)N3CCOCC3)CC2)c1
    -0.63 | i
> CCOC(=O)c1cc(C)nc2c1c(=O)n(Cc1nc(-c3ccc(Cl)cc3)oc1C)c(=O)n2C
    -0.01 | i
> Cc1ccc(-c2nn3c(=O)cc(CN4CCN(C(=O)c5cccc(Br)c5)CC4)nc3s2)cc1
    1.3 | i

Later entries.
Below each SMILES – Choline anaer gr early | Choline anaer gr
> CCc1ccc(-c2ccc(=O)n(CCc3nc(-c4cc(OC)cc(OC)c4)no3)n2)cc1
    1.3 | i
> O=C1Nc2ccccc2OC1C(=O)N1CCN(c2cccc(Cl)c2)CC1 (configuration not stated)
    -0.03 | i
> Cc1cc(C2CCCN2C(=O)c2cc(-c3ccc(F)cc3)on2)no1 (configuration not stated)
    -0.2 | i
> O=S(=O)(Cc1nc(-c2ccccc2)no1)c1ccc(F)cc1
    -0.11 | i
> CCCNC(=O)Nc1cccc(-c2noc(-c3ccccc3C)n2)c1
    -0.2 | i
> CCN(CC)S(=O)(=O)c1ccc2oc(-c3nc(-c4ccccn4)no3)c(C)c2c1
    0.67 | i
> COc1c(C)cnc2c1c(=O)n(CC(=O)Nc1ccccc1)c(=O)n2C
    0.43 | i
> NCCc1cnc[nH]1
    0.64&0.13&0.41&1.1 | i
> Cn1c(=O)n(C)c2cc(NS(=O)(=O)c3ccc(F)cc3)c(Cl)cc21
    -1.2 | i
> COc1cccc(NC(=O)Cn2nc3c4sccc4ncn3c2=O)c1
    -2.1 | i
> Cc1ccc2c(c1)NC(=O)C(C(=O)Nc1cccc(F)c1)O2 (configuration not stated)
    0.66 | i
> Cc1cccc(-c2ccc(C(=O)NCCC3=CCCCC3)cn2)c1
    0.35 | i
> CCOc1cccc(-c2noc(CCn3nc(-c4ccc5c(c4)OCO5)ccc3=O)n2)c1
    -0.56 | i
> COc1ccc(S(N)(=O)=O)cc1-c1noc(C2CCCCC2)n1
    -0.22 | i
> Cc1ccc2c(c1)N(C(=O)Cn1cc(-c3nc(-c4ccccc4C)no3)c(=O)c3ccc(C)nc31)CCO2
    0.42 | i
> CCOc1ccccc1C(=O)Nc1cc2c(cc1S(=O)(=O)C1CCCCC1)n(C)c(=O)c(=O)n2C
    1.1 | i
> COc1ccc(Nc2ccc(C(=O)N3CCc4ccccc43)nn2)cc1
    -0.63 | i
> Cc1ccc(N2C(=O)CN(CCc3ccc(S(N)(=O)=O)cc3)[C@H]3CS(=O)(=O)C[C@H]32)cc1C
    -0.95 | i
> Cc1ccc(NC(=O)c2ccc(S(=O)(=O)c3ccc(Cl)cc3)nc2)cc1
    0.9 | i
> O=C(C1CCCN(c2nnc(-n3cccc3)s2)C1)N1CCN(c2ccccn2)CC1 (configuration not stated)
    0.97 | i

The listing continues:
Below each SMILES – Choline anaer gr early | Choline anaer gr
> COc1cccc(NC(=O)c2ccnc(N3CCC(C(=O)NCc4ccccc4OC)CC3)c2)c1
    0.28 | i
> O=C(Cc1ccccc1)Nc1ccc(Cn2cnc(-c3nc(-c4ccc(Cl)cc4)no3)c2)cc1
    0.35 | i
> Cc1cccc(NC(=O)CCc2nc(-c3cc4ccccc4[nH]c3=O)no2)n1
    -0.82 | i
> CCOC(=O)COc1ccccc1C(=O)c1ccn2nc(-c3ccc(F)cc3)cc2n1
    0.58 | i
> O=C(CCC(=O)N1Cc2cccn2-c2ccccc21)NCc1ccc(Cl)cc1
    -0.04 | i
> COc1cccc(C(Nc2nc(C)cc(C)n2)c2cc(C)sc2NC(=O)c2ccccc2)c1 (configuration not stated)
    0.95 | i
> CCOC(=O)c1ccc(N2C(=O)Cn3cccc3C2C(=O)NC2CCC(C)CC2)cc1 (configuration not stated)
    -1.5 | i
> Cc1ccc2oc(N3CCN(C(=O)Cc4ccccc4)CC3)nc2n1
    0.04 | i
> O=C(Nc1ccc(-c2nnc(-c3ccccc3)o2)cc1)Nc1ccc(Br)cc1F
    -0.84 | i
> Cc1nn(C)c(C)c1CNC(=O)NCc1ccccc1
    0.44 | i
> CCOC(=O)C1CCN(c2cnn(-c3ccc(C(=O)O)cc3)c(=O)c2Cl)CC1
    0.28 | i
> COc1ccc(C(=O)Nc2cc3c(cc2Sc2ccccc2)n(C)c(=O)n3C)cc1Br
    0.35 | i

Taken from the listing for reference:
Below each SMILES – Choline anaer gr early | Choline anaer gr
> Cc1nn(C)c(C)c1CNC(=O)NCc1ccccc1
    0.44 | i
> CCOC(=O)C1CCN(c2cnn(-c3ccc(C(=O)O)cc3)c(=O)c2Cl)CC1
    0.28 | i
> COc1ccc(C(=O)Nc2cc3c(cc2Sc2ccccc2)n(C)c(=O)n3C)cc1Br
    0.35 | i

Source: PubChem BioAssay
